Compound activity (PubChem BioAssay)
Hedgehog inh: Sonic Hedgehog pathway inhibition; actives 2.1% (n = 22,000); Shh-LIGHT2 Gli-luciferase reporter, 30 h; inhibition, % (test concentration not listed);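 active = replicate mean of 65% or more; inconclusive = mean lower but half the replicates past it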;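 also: pathway switched on by Shh-conditioned medium diluted 1 in 25 in low serum; 100 nL library stock added to about 40 µL; 0% = median of neutral wells and 100% = positive control level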
PD-1 reverse act: activators reversing PD-1 mediated T-cell inhibition. primary human CD4 T cells, PD-L1 beads, CellTiter-Glo 96 h. activation, % (no concentration beside the values). 29,000 tested, under 10 active;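 active = replicate mean of 50% or more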;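 also: 0% = median vehicle wells and 100% = positive control; 100 nL library stock added to about 50 µL; numbers are from one replicate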
MITF inhib: blocks MITF activity. TRPM1 promoter luciferase, luminescence, 24 h. inhibition, % (concentration not given with the values). AID 2240. actives 0.28% (n = 37,000);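 active = most replicates at 85% or more, or half of them and the mean; inconclusive = half reach 85% but not the mean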;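 also: human melanocyte line stably carrying TRPM1 promoter luciferase reporter; 0% = vehicle wells and 100% = a positive control; the first replicate is given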
YB-1 expr inh: YB-1 expression inhibition. delta delta Cp (YB-1 minus CDIP) (no concentration beside the values). AID 434959. U2OS, qRT-PCR YB-1 vs CDIP delta delta Cp, 16 h; active compounds read high; zero = DMSO, each unit about twofold. actives 0.37% (n = 30,000);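 active = delta delta Cp rounded down to an integer at or above 3, about 3 SD of DMSO wells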;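 also: higher means less YB-1 transcript or more CDIP transcript relative to DMSO; stock transfer was 100 nL into about 100 µL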
* = called active by the depositor; ? = inconclusive; / = no result given; & = joins results of further samples. An excerpt, so the mix of outcomes need not match the whole.

[1] CNC[C@H]1Oc2ccc(NC(=O)Nc3ccc(F)cc3)cc2C(=O)N([C@H](C)CO)C[C@@H]1C
[2] Cc1csc2nc(CSc3ccc(Cl)cc3)c(Br)n12
[3] C[C@@H]1CN([C@H](C)CO)C(=O)Cc2cc(NC(=O)CCN3CCOCC3)ccc2O[C@H]1CN(C)C(=O)Nc1ccccc1
[4] C[C@H](CO)N1C[C@H](C)[C@H](CN(C)Cc2ccccc2)Oc2ccc(NC(=O)Nc3ccc(C(F)(F)F)cc3)cc2C1=O
[5] C[C@@H]1CN([C@H](C)CO)C(=O)c2cccc(NC(=O)c3ccncc3)c2O[C@@H]1CN(C)S(=O)(=O)c1cn(C)cn1
[6] C[C@H]1CN([C@@H](C)CO)C(=O)c2cccc(NC(=O)Nc3ccc(F)cc3)c2O[C@@H]1CN(C)C(=O)Nc1ccccc1
[7] COc1ccc(NC(=O)Nc2cccc3c2O[C@H](CN(C)C(=O)Nc2c(C)noc2C)[C@H](C)CN([C@H](C)CO)C3=O)cc1
[8] O=S(=O)(c1ccc(Cl)cc1)N1CCN(C(=S)NCc2ccco2)CC1
[9] COc1cc([N+](=O)[O-])ccc1NC(=S)NCc1ccco1
[10] CNC[C@H]1Oc2ccc(NC(=O)C3CCCCC3)cc2C(=O)N([C@@H](C)CO)C[C@@H]1C

screen / no.	1	2	3	4	5	6	7	8	9	10
Hedgehog inh	/	/	39.1	/	-54.1	-4.8	-25.0	/	/	9.7
PD-1 reverse act	1.3	0.0	1.4	-5.0	1.6	1.5	2.3	-0.2	-3.1	0.2
MITF inhib	-5.1	-53.4	1.5	14.3	-4.3	-18.3	10.8	-4.3	-35.2	-13.4
YB-1 expr inh	-0.129	-1.04	0.146	-0.37	-0.162	1.01	5.89*	/	/	-0.0595

Arranged by number of heavy atoms (low to high): part of the list above.
[2] Cc1csc2nc(CSc3ccc(Cl)cc3)c(Br)n12
[9] COc1cc([N+](=O)[O-])ccc1NC(=S)NCc1ccco1
[8] O=S(=O)(c1ccc(Cl)cc1)N1CCN(C(=S)NCc2ccco2)CC1
[1] CNC[C@H]1Oc2ccc(NC(=O)Nc3ccc(F)cc3)cc2C(=O)N([C@H](C)CO)C[C@@H]1C
[5] C[C@@H]1CN([C@H](C)CO)C(=O)c2cccc(NC(=O)c3ccncc3)c2O[C@@H]1CN(C)S(=O)(=O)c1cn(C)cn1

screen / no.	2	9	8	1	5
Hedgehog inh	/	/	/	/	-54.1
PD-1 reverse act	0.0	-3.1	-0.2	1.3	1.6
MITF inhib	-53.4	-35.2	-4.3	-5.1	-4.3
YB-1 expr inh	-1.04	/	/	-0.129	-0.162

More compounds
[11] C[C@H]1CN([C@@H](C)CO)C(=O)c2cc(N(C)C)ccc2O[C@H]1CN(C)S(=O)(=O)c1ccccc1
[12] COc1ccc(NC(=O)c2ccccc2OCC(=O)Nc2ccccc2C(F)(F)F)c(C)c1
[13] COC(=O)c1c(NC(=O)CC2Sc3ccccc3NC2=O)sc(C)c1C (stereo not drawn)
[14] C[C@@H]1CN([C@H](C)CO)C(=O)c2cc(NC(=O)Cc3ccccc3)ccc2O[C@H]1CN(C)C(=O)Nc1cccc2ccccc12
[15] O=C1C(=O)C(C2CCC(c3ccc(Cl)cc3)CC2)C(=O)c2ccccc21 (stereo not drawn)
[16] COc1ccc(Cl)c(Cn2c(NCC3CCCO3)nc3c2c(=O)n(C)c(=O)n3C)c1 (stereo not drawn)
[17] C[C@H](CO)N1C[C@H](C)[C@H](CN(C)Cc2ccc(-c3ccccc3)cc2)Oc2ccc(NS(=O)(=O)c3ccccc3)cc2C1=O
[18] COc1ccc(NC(=O)Nc2ccc3c(c2)CC(=O)N([C@@H](C)CO)C[C@H](C)[C@@H](CN(C)CC2CCCCC2)O3)cc1
[19] CC(C)NC(=O)N(C)C[C@H]1Oc2c(NC(=O)c3cnccn3)cccc2C(=O)N([C@H](C)CO)C[C@@H]1C
[20] COc1ccc(NC(=O)Nc2ccc3c(c2)C(=O)N([C@H](C)CO)C[C@H](C)[C@@H](CN(C)Cc2ccc4c(c2)OCO4)OCCCC[C@@H](C)O3)cc1

screen / no.	11	12	13	14	15	16	17	18	19	20
Hedgehog inh	13.0	/	/	15.6	43.6&-83.8	/	37.8	-43.7	-5.3	7.5
PD-1 reverse act	/	-0.3	-1.3	-0.2	7.3	-2.3	-1.4	1.7	0.7	/
MITF inhib	4.5	-9.7	-9.1	-0.4	14.0&50.6	-28.2	0.8	-0.4	-16.5	-16.8
YB-1 expr inh	-0.00171	/	/	-0.417	0.0634&0.494	/	0.022	0.45	-0.236	0.278

[21] CCCN(C)C[C@@H]1OCCCC[C@@H](C)Oc2ccc(NS(=O)(=O)c3ccccc3)cc2C(=O)N([C@H](C)CO)C[C@@H]1C
[22] CN(C)CCNc1nc2c(c(=O)n(C)c(=O)n2C)n1Cc1c(F)cccc1Cl
[23] C[C@@H]1CN([C@@H](C)CO)C(=O)Cc2cc(NS(=O)(=O)c3cn(C)cn3)ccc2O[C@@H]1CN(C)C
[24] C[C@@H]1CN([C@H](C)CO)C(=O)c2cccc(NC(=O)c3cnccn3)c2O[C@@H]1CN(C)C(=O)Nc1ccc(C(F)(F)F)cc1
[25] Cc1ccc(S(=O)(=O)Nc2ccc3c(c2)CC(=O)N([C@@H](C)CO)C[C@@H](C)[C@@H](CN(C)S(C)(=O)=O)O3)cc1
[26] Cc1ccc(S(=O)(=O)Nc2ccc3c(c2)C(=O)N([C@H](C)CO)C[C@H](C)[C@H](CN(C)Cc2ccc(Cl)c(Cl)c2)O3)cc1
[27] COc1ccccc1-c1cc(C(F)(F)F)nc(S(=O)(=O)CCCC(=O)N2CCOCC2)n1
[28] CNC[C@@H]1OCCCC[C@@H](C)Oc2ccc(NS(=O)(=O)c3ccc(OC)cc3)cc2C(=O)N([C@H](C)CO)C[C@@H]1C
[29] Cc1noc(C)c1S(=O)(=O)Nc1ccc2c(c1)CC(=O)N([C@@H](C)CO)C[C@H](C)[C@H](CN(C)Cc1ccncc1)O2
[30] C[C@H]1CN([C@@H](C)CO)C(=O)c2cc(NS(=O)(=O)c3ccccc3)ccc2O[C@@H]1CN(C)C(=O)Nc1ccc(C(F)(F)F)cc1

screen / no.	21	22	23	24	25	26	27	28	29	30
Hedgehog inh	-10.8	/	19.0	4.2	-25.3	/	/	-12.1	-19.8	15.8
PD-1 reverse act	/	2.1	/	-2.1	2.6	/	-16.2	/	-0.1	-1.0
MITF inhib	4.9	-23.1	-3.5	-0.8	-20.5	17.2	60.1	3.5	-11.5	0.9
YB-1 expr inh	0.232	/	0.0578	0.0972	-0.064	-0.06	/	-12.5	-0.333	0.2

[31] Cc1ccc(S(=O)(=O)Nc2ccc3c(c2)C(=O)N([C@H](C)CO)C[C@@H](C)[C@H](CN(C)C(=O)Nc2ccccc2)O3)cc1
[32] CN1CCCN(C(c2ccccc2)c2ccc(Cl)cc2)CC1 (stereo not drawn)
[33] Cc1ccc(NC(=O)COc2ccc3cc(-c4ccc(Cl)cc4)c(=O)oc3c2)cc1
[34] Cc1ccc(-c2cc(C(F)(F)F)n3nc(C(=O)NCc4cc(C)n(C)n4)cc3n2)cc1C
[35] C[C@@H]1CN([C@@H](C)CO)C(=O)c2cccc(NS(C)(=O)=O)c2O[C@@H]1CN(C)Cc1ccc2c(c1)OCO2
[36] C=C1C(=O)O[C@H]2C3=C(C)CCC[C@]3(C)C(=O)C[C@@H]12
[37] CS(=O)(=O)N(CC(=O)Nc1ccc(Br)c(Cl)c1)c1cccc([N+](=O)[O-])c1
[38] Cc1ccc(N(C(C)C(=O)Nc2c(C)cccc2C)S(C)(=O)=O)cc1 (stereo not drawn)
[39] NC(=S)NC1CC2C=CC1C2 (stereo not drawn)
[40] Cc1ccc(C)c(-n2nnnc2SCC(=O)Nc2ccc(F)cc2)c1

screen / no.	31	32	33	34	35	36	37	38	39	40
Hedgehog inh	/	26.7	/	/	-12.9	76.1*	/	/	-16.7	/
PD-1 reverse act	-1.7	/	2.7	-2.2	1.8	-35.2	1.6	-0.3	-0.2	-1.1
MITF inhib	-19.2	-0.4	-12.8	-0.6	0.5	78.3	8.1	-6.2	-0.8	19.6
YB-1 expr inh	0.162	-0.0116	/	/	-0.726	-0.036	/	/	-0.166	/

[41] C[C@@H]1CN([C@H](C)CO)C(=O)Cc2cc(NC(=O)CCN3CCOCC3)ccc2O[C@H]1CN(C)CC1CCCCC1
[42] CCOC(=O)c1cnc2c(C(F)(F)F)cccc2c1NCCCN1CCOCC1
[43] C[C@H](CO)N1C[C@H](C)[C@H](CN(C)S(=O)(=O)c2cn(C)cn2)Oc2ccc(NS(=O)(=O)c3ccc(F)cc3)cc2C1=O
[44] C[C@@H]1CN([C@H](C)CO)C(=O)c2cc(NC(=O)Nc3ccc4c(c3)OCO4)ccc2O[C@@H]1CN(C)CC1CCCCC1
[45] O=C(COc1ccc([N+](=O)[O-])cc1)Nc1ccncc1
[46] C[C@@H]1CN([C@H](C)CO)C(=O)c2cc(NC(=O)c3ccncc3)ccc2O[C@H]1CN(C)C(=O)Nc1ccc(F)cc1
[47] COc1ccc(NC(=O)N(C)C[C@@H]2Oc3c(NC(=O)c4cnccn4)cccc3C(=O)N([C@@H](C)CO)C[C@H]2C)cc1
[48] Cc1ccc(S(=O)(=O)NC2c3cccc4cccc(c34)C2Sc2n[nH]c(N)n2)cc1 (stereo not drawn)
[49] O=C(NCCCNc1ccc(C(F)(F)F)cc1[N+](=O)[O-])c1ccc(F)cc1
[50] Cc1ccc(-c2csc3nnc(SCC(=O)c4ccc(Cl)c(Cl)c4)n23)cc1

screen / no.	41	42	43	44	45	46	47	48	49	50
Hedgehog inh	-18.5	/	/	/	/	-10.9	?	/	/	/
PD-1 reverse act	0.4	-3.9	0.2	1.2	-0.7	-0.3	0.8	-0.3	0.6	-6.2
MITF inhib	9.6	-10.6	-16.3	-9.0	21.3	1.5	-6.4	38.1	-1.1	32.3
YB-1 expr inh	0.348	/	-0.112	0.0936	/	-0.515	0.0831	/	/	/

[51] COC(=O)Cc1cc(=O)n(-c2nc3ccccc3s2)[nH]1
[52] C[C@@H]1CN([C@H](C)CO)C(=O)c2cccc(NC(=O)Nc3ccc(F)cc3)c2O[C@H]1CN(C)C(=O)Nc1cccc2ccccc12
[53] COc1ccc(S(=O)(=O)Nc2ccc3c(c2)C(=O)N([C@H](C)CO)C[C@H](C)[C@H](CN(C)C(=O)c2ccccc2)OCCCC[C@@H](C)O3)cc1
[54] COc1ccccc1NC(=O)c1ccc(OCC(=O)Nc2cc(Cl)cc(Cl)c2)cc1
[55] COc1cccc(NC(=O)CCc2nc(-c3ccc(OC)c(OC)c3)no2)c1
[56] FC(F)(F)C1(C(F)(F)F)N=C(c2ccccc2)OC(N2CCCCC2)=N1
[57] COc1cc(NC(=O)COc2ccc(I)cc2)c(C(=O)O)cc1OC
[58] C[C@@H]1CN([C@@H](C)CO)C(=O)c2cc(NC(=O)Cc3cn(C)c4ccccc34)ccc2O[C@@H]1CN(C)C(=O)Nc1cccc2ccccc12
[59] C[C@H]1CN([C@@H](C)CO)C(=O)c2cccc(NS(C)(=O)=O)c2O[C@@H]1CN(C)C(=O)Nc1ccc(F)cc1
[60] Cc1noc(C)c1NC(=O)N(C)C[C@H]1Oc2ccc(NS(=O)(=O)c3cn(C)cn3)cc2CC(=O)N([C@@H](C)CO)C[C@@H]1C

screen / no.	51	52	53	54	55	56	57	58	59	60
Hedgehog inh	/	26.8	-36.5	/	/	1.1	/	-1.3	-35.1	-26.2
PD-1 reverse act	0.4	-0.8	1.1	-0.5	-3.5	0.5	1.8	-2.2	1.1	3.4
MITF inhib	-28.3	-0.5	3.3	22.1	-27.1	1.8	-5.0	34.4	-9.6	-3.0
YB-1 expr inh	/	0.197	0.141	/	/	-0.0361	/	-0.29	0.592	-0.145

[61] C[C@@H]1CN([C@H](C)CO)C(=O)Cc2cc(NC(=O)Cn3cnnn3)ccc2O[C@@H]1CN(C)C(=O)Nc1cccc2ccccc12
[62] COc1ccc(OCC(=O)Nc2cccc(-c3nnc4c5ccccc5c(C)nn34)c2)cc1
[63] C[C@H](CO)N1C[C@H](C)[C@H](CN(C)Cc2ccncc2)Oc2c(NC(=O)Nc3ccccc3)cccc2C1=O
[64] Cc1ccc(S(=O)(=O)N(C)C[C@H]2Oc3c(NS(=O)(=O)c4ccc(F)cc4)cccc3C(=O)N([C@H](C)CO)C[C@@H]2C)cc1

screen / no.	61	62	63	64
Hedgehog inh	-4.6	/	-43.7	-10.8
PD-1 reverse act	1.6	2.3	1.5	2.5
MITF inhib	6.9	-17.2	-4.6	-1.3
YB-1 expr inh	-0.0265	/	0.00665	-0.309
